VACV Venus inh: qHTS for Stage-Specific Inhibitors of Vaccinia Orthopoxvirus: Venus Reporter Primary qHTS; Vaccinia virus Venus reporter expression, fluorescence; Potency, µM (series often up to 36.5 µM), for the others: at the highest dose activity change, negative = inhibition, most hits filed as inhibitors; hit rate 0.46% among 330,000; AID 720580, 2013; active means well fitted inhibition curve with a large enough effect; inconclusive means small, poorly fitted or top-dose-only effect; inactive means no such curve, though single readings can be large or run the other way; tested in A549 cells; also: nearly all actives have a fitted effect of over 30% in size; inactives centre near -10
Vaccinia mCherry: qHTS for Stage-Specific Inhibitors of Vaccinia Orthopoxvirus: mCherry Reporter Primary qHTS; Vaccinia virus mCherry reporter infection, fluorescence; about a quarter of the inactives have no number; Potency, µM (highest dose often 36.5 µM), for the others: at the highest dose activity change, negative = inhibition, hits mostly inhibitors; hit rate 0.63% among 310,000; active = well fitted inhibition curve with a large enough effect; inconclusive = small, poorly fitted or top-dose-only effect; inactive = no such curve, though single readings can be large or run the other way; tested in A549 cells; also: nearly all actives have a fitted effect of over 35% in size; inactives centre near -10
* = called active by the depositor; i = inactive; ? = inconclusive; nt = no result given; & = joins results of further samples; [ ] = dose if it differs, or a comment. % is scaled to controls: 0 for no effect and ±100 for the full control effect; potency is read from the fitted curve at half-maximal effect.

SMILES	VACV Venus inh	Vaccinia mCherry
CCOC(=O)c1cccc(NC(=O)CCc2nnc3ccc(N4CCCCC4)nn23)c1	-11.1%	-24.4%
CCOc1ccc(C(=O)N2CCN(c3ccccc3)CC2)cc1	-6.2%	-1.6%
COC(=O)c1cn(NC(=O)/C=C/c2cc(OC)ccc2OC)c(=O)c2ccccc12	-7.4%	-8.0%
Fc1cccc(C2NN=C(c3ccccc3)S2)c1 (stereo not drawn)	-15.1%	i
CCn1c(CNc2ccc(Cl)cc2)nnc1SCc1ccc(C)cc1	-27.9%	?
Cc1ccc(C(=O)N2CCN(c3ccc([N+](=O)[O-])cc3)CC2)o1	-7.0%	-22.5%
O=C(C1CCCN(Cc2ccc(Cl)cc2)C1)N1CCCCC1 (stereo not drawn)	-4.5%	i
O=C(Nc1ccccc1)OCCOc1cccc(Br)c1	-13.1%	-0.2%
Cc1nc(C)c(-c2ccc(SCC(=O)Nc3ccc(F)cc3F)nn2)s1	-19.9%	?
CCOC(=O)c1cc(S(=O)(=O)NCc2ccc(Cl)cc2)[nH]n1	-14.2%	-12.6%[7.34 µM]
Fc1ccc(N2CCN(Cc3ccc4c(c3)CN(Cc3cccn3-c3ncccn3)CCO4)CC2)cc1	-8.9%	-22.0%
COc1ccc(CNC(=O)C2CCCN(S(=O)(=O)c3c(C)nn(C)c3C)C2)cc1 (stereo not drawn)	-1.6%	27.7%
O=C(Nc1ccc(F)c(Cl)c1)C1CCN(c2ncnc3c2nc2n3CCCCC2)CC1	-5.2%	-0.3%
CC(Cc1ccccc1Sc1ccc(O)cc1)N(C)C (stereo not drawn)	-19.8%	i[1.46 µM]
CCOc1cc(/C=N/NC(=O)COc2ccc(Cl)cc2)ccc1OS(=O)(=O)c1ccccc1	?	?
Cc1ccc(NC(=O)Cn2ncn3c(cc4ccccc43)c2=O)cc1F	-0.5%&-1.7%	-7.0%&-15.8%
O=C(NNC(=S)NCC1CCCO1)c1ccc(S(=O)(=O)N2CCOCC2)cc1 (stereo not drawn)	1.5%	6.4%
COc1ccc(-n2c(-c3ccc(Br)cc3)c[n+]3c2SC(C)C3)cc1 (stereo not drawn)	-17.9%	-14.7%
COc1ccc(CNC(=O)C/C(C)=N/NC(=O)COc2cccc(C)c2)cc1	3.1%	-0.6%
CCOC(=O)c1[nH]c2ccccc2c1NC(=S)Nc1cccc(C)c1C	-9.7%	-13.1%
CC1CCc2onc(C(=O)N3CCN(c4ccc(F)cc4)CC3)c2C1 (stereo not drawn)	-27.3%	-12.0%
CSCC[C@@H](C(=O)NCCCCCCCCCCC(=O)N1CCN(C(=O)OC(C)(C)C)CC1)n1cc(CCO)nn1	-21.2%	-1.8%
COc1cc(/C=C/C(=O)OCC(=O)N2CCCc3ccccc32)ccc1OC(F)F	1.1%	-24.6%
COc1ccc(C(CNC(=O)c2ccc3c(c2)OCCO3)N(C)C)cc1 (stereo not drawn)	1.2%	-22.3%
Cc1noc(NS(=O)(=O)c2ccc(NC(=O)c3nn(-c4ccc(F)cc4)ccc3=O)cc2)c1C	-18.0%	-19.5%
SMILES	VACV Venus inh	Vaccinia mCherry
COc1[nH]c(/N=C/c2ccccc2)c(C#N)c1C#N	36.1%[activator]	-7.7%&17.8%
COCCNC(=O)C1CCCN(C(=O)c2cccnc2Oc2ccccc2)CC1 (stereo not drawn)	-6.1%	38.6%[activator]
C=C1CCN([C@@H](Cc2ccccc2)C(=O)N2CCOCC2)S(=O)(=O)c2ccccc21	-1.8%	i
CS(=O)(=O)Nc1ccc(S(=O)(=O)N2CCOCC2)cc1	-8.0%	-12.8%
COc1ccc(CCNC(=O)CCCn2c(=O)c3ccccc3n(CC(=O)Nc3ccc(C)cc3Cl)c2=O)cc1OC	-4.7%	-12.6%
COc1ccc(C(CNC(=O)COc2ccc(C)c(C)c2)N2CCCCC2)cc1 (stereo not drawn)	-13.6%	-10.8%
CCOc1ccc(/C=C(/NC(=O)c2ccccc2)C(=O)NCCC(=O)O)cc1	1.2%	-3.1%
O=C(CSc1cccc2cccnc12)N/N=C/c1cccc(O)c1	-16.8%	-5.9%
COc1ccc(/C=C/C(=O)N2CCC(c3nc4ccccc4o3)CC2)cc1	-18.3%	-4.4%
CC(=O)N1CCc2cc(S(=O)(=O)NC(Cc3ccccc3)C(=O)Nc3cc(C)cc(C)c3)ccc21 (stereo not drawn)	1.0%	-4.4%
COc1ccc(C(C)(C)C)cc1S(=O)(=O)NCC1CCCO1 (stereo not drawn)	-17.8%	-6.0%
NC(c1ccccc1)c1csc(NC(=O)NCC2CCCCC2)n1 (stereo not drawn)	-17.3%	i
Cc1ccc(C)c(Cn2cnc3c(oc4ccccc43)c2=O)c1	-6.0%	-13.6%
Clc1ccc(CNc2ncnc3nc[nH]c23)cc1	-28.1%&-12.6%	?
N#CCC(=O)Nc1ccc(C(=O)OC(C(=O)Nc2cc(C(F)(F)F)ccc2Cl)c2ccccc2)cc1 (stereo not drawn)	-19.1%	-0.5%
CCOc1ccccc1N1CCN(CC(=O)N(C)CC(=O)Nc2ccccc2CC)CC1	-10.9%	?
Cc1ccccc1C(=O)N(C)[C@H]1C[C@H]2c3[nH]c4ccccc4c3CCN2C[C@H]1[C@H](C)O	3.3%	2.5%
OC(COCc1ccccc1F)CN1CCCCC1 (stereo not drawn)	-9.2%	i
COCCN(C(=O)Cn1c(C(F)(F)F)nc2ccccc21)c1c(N)n(Cc2ccccc2)c(=O)[nH]c1=O	1.5%	i
CCCCn1c(N)c(N(CC(C)C)C(=O)CCN2C(=O)C3CC=CCC3C2=O)c(=O)[nH]c1=O (stereo not drawn)	0.2%	?
O=C(Nc1ccc(F)cc1)N[C@@H]1CC[C@@H](CCn2cc(-c3ccc(F)cc3)nn2)O[C@@H]1CO	-4.9%	5.9%
CCN(CC)C(=O)C(C)N(C#N)c1nc(C)cc(C)n1 (stereo not drawn)	-6.1%	-9.3%
CC(=O)N1c2ccc(S(=O)(=O)N3CCCC(C(=O)N4CCC(C)CC4)C3)cc2CC1C (stereo not drawn)	?	-17.0%
COc1ccc(S(=O)(=O)N(C)CC(=O)NCc2ccco2)cc1OC	-6.9%	-11.7%
O=C(CCN1C(=O)C2C3C=CC(C3)C2C1=O)N1CCN(c2ccc(F)cc2)CC1 (stereo not drawn)	-12.3%	nt
SMILES	VACV Venus inh	Vaccinia mCherry
COc1cc(CNc2ncn[nH]2)ccc1OCc1ccccc1C	-10.8%	i
Cc1ccc(S(=O)(=O)N(CC(=O)N2CCOCC2)c2ccc(C(C)C)cc2)cc1	8.1%	-7.7%
CCN(CC)c1ccc(/C=C/C(=O)c2ccc(Br)cc2)cc1	103.4%[activator]	-12.5%
CC(C)C[C@H]1CN(CCCC[C@H]2CNC(=O)C(=O)N2CCC2CCCCC2)C(=O)C(=O)N1CCc1ccccc1	?	?
Cc1nc(NS(=O)(=O)c2ccccc2)sc1NC(=O)Nc1ccccc1	-15.3%	-17.2%
COc1ccc(N(CC(=O)O)S(=O)(=O)c2c(C)n[nH]c2C)cc1	-10.0%	i
COc1ccc(-c2[nH]ncc2CN2CCC(OCc3cccnc3)CC2)c(F)c1	-16.6%	i
COc1ccc(S(=O)(=O)N(C)c2ccc(C(=O)Nc3ccccc3C(=O)N3CCOCC3)cc2)cc1OC	-5.3%	-11.4%
Cc1ccc(NC(=O)C2CCN(S(=O)(=O)c3cccc4nonc34)CC2)c(Cl)c1	-5.3%	-9.0%
Cc1cc(C)n(-c2ccc(C(=O)OCc3ccccc3)cc2)n1	-0.8%	i
COc1ccccc1N1CCN(C(=O)CCNS(=O)(=O)c2ccc(Br)s2)CC1	-7.2%	nt
Fc1ccc(Oc2nccc(-c3ccc(Cl)cc3)n2)cc1	-7.5%	nt
COc1cccc(CN2CCN(Cc3ccc(C#CC(C)(C)O)s3)CC2CCO)c1 (stereo not drawn)	-5.8%	-9.2%
O=C(Nc1cccc(C(F)(F)F)c1)C1Cc2c(-c3ccc(Cl)cc3)ccnc2O1 (stereo not drawn)	-16.5%	i
COC(=O)C(C)Oc1ccc(=O)[nH]n1 (stereo not drawn)	-6.1%	nt
Nc1nonc1C(=O)N/N=C/c1cccc([N+](=O)[O-])c1	-1.7%	-13.9%
Cc1ccc(S(=O)(=O)N2CCN(C(=O)CCN3C(=O)c4ccccc4C3=O)CC2)cc1C	-10.1%	i
CN1CCN(c2ncnc3c2ncn3[C@H]2CN(Cc3ccncc3)C[C@@H](CO)O2)CC1	-11.1%	-14.2%
COc1ccc(Cl)cc1C(=O)NCCCN1CCOCC1	-6.4%	-12.2%
CC(C)CN(CC(C)C)c1nn[nH]n1	-0.6%	i
N#CCSc1nc2scc(-c3cccs3)c2c(=O)n1CCc1ccccc1	-10.5%	-7.9%
CCOc1ccc(-c2nnc3sc(COc4ccc(Cl)cc4)nn23)cc1	-10.3%	nt
COc1ccc2ccccc2c1/C=N\NC(=O)c1cccnc1	-8.9%[7.34 µM]	-3.1%[7.34 µM]
COC(=O)CNC(c1ccccc1)c1cc(C)ccc1NC(=O)c1cccc(Cl)c1 (stereo not drawn)	-15.2%	?
COc1ccc(S(=O)(=O)N2CCN(C(=S)Nc3ccc(S(N)(=O)=O)cc3)CC2)cc1	-10.7%	-26.2%
SMILES	VACV Venus inh	Vaccinia mCherry
COC(=O)c1oc2ccc(Cl)cc2c1-n1cccc1	-2.7%	-7.5%
CC(=O)Nc1c2c(nn1-c1cccc(Cl)c1)CS(=O)C2 (stereo not drawn)	-5.6%	-13.6%
Cc1nc2ccn(Cc3ccccc3)c(=O)c2cc1C(=O)N1CCN(c2ccccc2F)CC1	?	?
O=C(NCc1ccco1)C1CC(c2ccc(F)cc2)=NO1 (stereo not drawn)	-18.6%	-25.6%
O=C(/C=C/c1ccccc1)Oc1cccc(C(=S)N2CCOCC2)c1	-2.0%	-8.5%
CCOCCCNC(=O)C(NC(=O)c1cnccn1)c1ccc(OC)cc1 (stereo not drawn)	-4.3%	i
O=C(O)CCCNC(=O)C(c1ccccc1)c1ccccc1	-9.2%&-10.4%	-15.2%&-13.8%
O=C(NCc1nnc(SCc2ccc(F)cc2)n1-c1ccc(F)cc1)C12CC3CC(CC(C3)C1)C2	?	?
Cc1noc(C)c1S(=O)(=O)N(C)C[C@H]1Oc2ccc(NC(=O)CCC(F)(F)F)cc2C(=O)N([C@H](C)CO)C[C@@H]1C	-13.6%	-17.7%
COC(=O)C1=CN(c2ccc(F)cc2)C=C(C(=O)OC)C1c1ccc([N+](=O)[O-])cc1	-14.3%	-23.3%
c1cncc(-c2nc3ccccn3c2Nc2ccc3c(c2)OCCO3)c1	-9.0%	?
COc1ccc(N(Cc2ccccc2)C(=O)c2ccccc2[N+](=O)[O-])cc1	-6.5%	-22.3%
O=C(CN1C(=O)c2ccccc2S1(=O)=O)Nc1cc(S(=O)(=O)N2CCOCC2)ccc1N1CCOCC1	-12.5%	-12.5%
COc1ccc(N2CCN(CCCNS(=O)(=O)c3ccc4c(c3)oc(=O)n4C)CC2)cc1	0.7%	5.8%
CCOc1ccc(C(N)=O)cc1OC	-5.1%	nt
O=C(CCCN1C(=O)/C(=C\c2ccccc2)SC1=S)Nc1ccc(O)cc1	28.2µM*	?
CCCCn1c(N)c(N(CC(C)C)C(=O)CN2C(=O)NC3(CC(C)CC(C)(C)C3)C2=O)c(=O)[nH]c1=O (stereo not drawn)	-13.5%	-2.4%
Cc1ccc(-n2ncc3c(N4CCC(C(N)=O)CC4)ncnc32)cc1	0.4%	-15.5%
O=C(CCc1nc2sc3c(c2c(=O)[nH]1)CCCC3)Nc1cccc(Cl)c1	-6.6%	-4.3%
CCc1ccc(S(=O)(=O)N2CCCC(N3CCN(c4ccc(OC)cc4)CC3)C2)cc1 (stereo not drawn)	-22.3%	-8.6%
CCN(CC)c1ccc(C2C(C(=O)Nc3ccccc3C)=C(C)Nc3ncnn32)cc1 (stereo not drawn)	-9.7%	-5.7%
O=C(CCc1nc(-c2ccccc2F)no1)NC1CCN(Cc2ccccc2)CC1	-12.3%	nt
OC(CCN1CCOCC1)c1ccccc1 (stereo not drawn)	-7.1%	i
CN(c1nc2ccccc2[nH]c1=O)C1CCCCC1	-7.6%	-14.5%
CC(=O)c1ccc(NC(=O)c2ccc(-n3cnnn3)cc2)cc1	-2.2%	0.1%
CCOc1ccccc1NC(=O)CSc1nc2c(oc3ccccc32)c(=O)n1Cc1ccco1	-4.4%	-9.5%
Cc1cc(C)c(C)c(S(=O)(=O)Nc2ccc(C(N)=O)cc2)c1C	-10.9%	i
O=C(NCc1ccccc1F)C1CCCN(C(=O)Nc2ccccc2)C1 (stereo not drawn)	8.8%	-0.7%
CCN(CC)S(=O)(=O)c1ccc(N2CCOCC2)c(NC(=O)c2c3c(nc4ccccc24)CCC3)c1	0.2%	-10.8%
COCCNC(=O)Cn1cnc2sc(C)c(S(=O)(=O)N3CCN(c4ccccc4OC)CC3)c2c1=O	7.2%&-13.7%	-9.5%&-9.1%

Complete entries from above. Values in the order: VACV Venus inh, Vaccinia mCherry
`CC(=O)c1ccc(NC(=O)c2ccc(-n3cnnn3)cc2)cc1` across the screens: -2.2%, 0.1%
`Cc1ccc(-n2ncc3c(N4CCC(C(N)=O)CC4)ncnc32)cc1` across the screens: 0.4%, -15.5%
`COc1ccc(N(Cc2ccccc2)C(=O)c2ccccc2[N+](=O)[O-])cc1` across the screens: -6.5%, -22.3%
`Cc1noc(C)c1S(=O)(=O)N(C)C[C@H]1Oc2ccc(NC(=O)CCC(F)(F)F)cc2C(=O)N([C@H](C)CO)C[C@@H]1C` across the screens: -13.6%, -17.7%
`CCCCn1c(N)c(N(CC(C)C)C(=O)CN2C(=O)NC3(CC(C)CC(C)(C)C3)C2=O)c(=O)[nH]c1=O` (stereo not drawn) across the screens: -13.5%, -2.4%
